Cruzain Triton – cruzain (T. cruzi) inhibition with detergent. P25779. purified cruzain, Z-FR-AMC fluorescence, 0.01% Triton. Potency, µM, inactives show max response, negative = inhibition, most hits filed as inhibitors. hit rate 0.43% among 200,000;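 note: plate controls were neutral wells for no effect and buffer without enzyme for full effect; nearly all actives have a fitted effect of over 40% in size; top concentration of the series not given in the record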
Target sequence (P25779 123-467 limits assumed): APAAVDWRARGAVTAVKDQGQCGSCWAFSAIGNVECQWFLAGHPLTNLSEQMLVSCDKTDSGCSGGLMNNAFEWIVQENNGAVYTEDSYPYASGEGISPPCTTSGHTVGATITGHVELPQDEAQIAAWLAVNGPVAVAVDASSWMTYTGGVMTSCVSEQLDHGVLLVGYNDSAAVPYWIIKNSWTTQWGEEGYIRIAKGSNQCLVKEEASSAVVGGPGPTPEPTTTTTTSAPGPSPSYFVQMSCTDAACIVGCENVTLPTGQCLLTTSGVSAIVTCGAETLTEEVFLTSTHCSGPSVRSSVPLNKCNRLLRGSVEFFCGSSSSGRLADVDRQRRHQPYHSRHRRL
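Compounds were screened in titration against cruzain (1.5 nM) with 0.01% Triton X-100 to counter colloidal aggregation. Activity was the AMC fluorescence increase over 60 s after adding 2 uM Z-FR-AMC at pH 5.5.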
NS1 inh – inhibitors of influenza NS1 protein function; S. cerevisiae slowed by influenza A NS1, growth recovery by OD600; Potency, µM (series often up to 46.1 µM), for the others: at the highest dose activity, positive = more growth; hit rate 0.4% among 270,000; AID 2326; active means well fitted rising curve with a large enough effect; inconclusive means small, poorly fitted or top-dose-only effect; inactive means no such curve, though single readings can be large or run the other way; note: nearly all actives have a fitted effect of over 50% in size
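Read-out: OD600 growth recovery of NS1-expressing budding yeast. Cells grown overnight at 30C in -URA glucose medium, washed, resuspended and diluted 1:100 in 2% galactose assay medium, pH 6.0. Same strain lacking NS1 served as positive control.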
Cruzain noTriton – cruzain (T. cruzi) inhibition without detergent | hit rate 2.3% among 200,000 | AID 1476 | purified cruzain, Z-FR-AMC fluorescence, no detergent | Potency, µM, for inactives: max response, negative = inhibition, usual class: inhibitors;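 note: plate controls were enzyme without inhibitor for no effect and buffer without enzyme for full effect; nearly all actives have a fitted effect of over 40% in size; top concentration of the series not given in the record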
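Detergent-free condition (0.00005% Triton X-100) in acetate buffer pH 5.5 with DTT. 1.5 nM enzyme and compound were pre-mixed 15 min, then 2 uM Z-FR-AMC substrate added; reaction progress from fluorescence change between first and third reads (60 s).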
2A StopGo – FMDV 2A StopGo reporter, luciferase signal; human cells with a luciferase reporter of 2A StopGo recoding; control for the full effect not named in the record; Potency, µM (doses to about 57.9 µM), inactives show top-dose signal change, negative = less light; hit rate 1.2% among 410,000; AID 1159524; active = well fitted falling curve with a large enough effect; inconclusive = small, poorly fitted or top-dose-only effect; inactive = no such curve, though single readings can be large or run the other way; tested in HEK293T cells; note: % is set by controls: 0 for no effect and ±100 for the full control effect; nearly all actives have a fitted effect of over 45% in size; luciferase light after 4 h
Lassa entry inh – Lassa virus entry inhibition; Lassa virus pseudotype entry inhibition, cell reporter; control for the full effect not named in the record; Potency, µM (titrated, usually from 37.9 µM), for inactives: at the top dose activity change, negative = inhibition, most hits filed as inhibitors; hit rate 1.2% among 300,000; active means well fitted inhibition curve with a large enough effect; inconclusive means small, poorly fitted or top-dose-only effect, or effect the other way; inactive means flat fitted curve, though single readings scatter; tested in HEK293 cells; note: % is set by controls: 0 for no effect and ±100 for the full control effect; nearly all actives have a fitted effect of over 50% in size; luciferase read-out
Marburg entry inh – Marburg virus entry inhibition; hit rate 1.8% among 300,000; Marburg virus pseudotyped entry inhibition, cell reporter; control for the full effect not named in the record; about a third of the inactives were read at about 46 µM; Potency, µM (series often up to 37.8 µM), for inactives: top-dose activity change, negative = inhibition, most hits filed as inhibitors; active = well fitted inhibition curve with a large enough effect; inconclusive = small, poorly fitted or top-dose-only effect, or effect the other way; inactive = flat fitted curve, though single readings scatter; tested in HEK293 cells; about a fifth of its hits are not listed in these tables; note: % is set by controls: 0 for no effect and ±100 for the full control effect; luciferase read-out
SARS PLP yeast – blocks SARS-CoV papain-like protease in a yeast assay; S. cerevisiae expressing SARS-CoV PLpro, growth rescue; control for the full effect not named in the record; Potency, µM (series often up to 32.9 µM), inactives show at the top dose activity, positive = growth rescue; hit rate 0.19% among 330,000; AID 485353; active means well fitted rising curve with a large enough effect; inconclusive means small, poorly fitted or top-dose-only effect; inactive means no such curve, though single readings can be large or run the other way; note: 0% is about no effect; nearly all actives have a fitted effect of over 55% in size; growth read by luminescence after 48 h
RE007 growth inh – less growth of the S. pombe RE007 Vpr strain; S. pombe RE007 Vpr strain, BacTiter-Glo ATP luminescence, 24 h; control for the full effect not named in the record; Potency, µM (doses to about 92.2 µM), for inactives: at the highest dose activity change, negative = less growth; hit rate 0.21% among 360,000; active = well fitted falling curve with a large enough effect; inconclusive = small, poorly fitted or top-dose-only effect; inactive = no such curve, though single readings can be large or run the other way;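 note: % is set by controls: 0 for no effect and ±100 for the full control effect; nearly all actives have a fitted effect of over 50% in size; the assay follows cell death caused by Vpr and the record does not say whether a fall means rescue or toxicity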
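Fission yeast strain RE007, carrying one chromosomally integrated HIV-1 vpr copy, was seeded at OD 0.01 in PMG+AL medium with 23 nL pinned compound. After 24 h at 30 °C and 99% humidity, viability was read by BacTiter-Glo luminescence.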
Starred values were filed as active, the others as inactive; ? = inconclusive; / = no result given; & = joins results of further samples; [ ] = another dose, or the depositor's remark. Unless noted, calls come from the whole dose curve; as a rule, active = well fitted curve in the direction sought with a large enough effect; inconclusive = small, poorly fitted or top-dose-only effect, or another doubt; inactive = no such curve, though single readings can be large; an effect the other way counts as inactive or inconclusive. Potency is the fitted concentration of half-maximal effect.

| molecule | Marburg entry inh | Cruzain Triton | Lassa entry inh | 2A StopGo | SARS PLP yeast | Cruzain noTriton | NS1 inh | RE007 growth inh |
| --- | --- | --- | --- | --- | --- | --- | --- | --- |
| CC(=O)Nc1ccc(S(=O)(=O)N2CCC(c3nnc(-c4ccc(C)cc4)o3)CC2)cc1 | 0%[46.1 µM] | -8.8% | -1%[46.1 µM] | ? | -2% | ? | -2% | 0% |
| Cc1ccc2c(C)c(C(=O)N3CCN(Cc4ccc5c(c4)OCO5)CC3)oc2c1C | -4%[46.1 µM] | / | 1%[46.1 µM] | 8% | -5% | / | -67% | -5% |
| CCCc1nc(NCc2ccncc2)c2nnn(Cc3ccccc3F)c2n1 | -19% | -1.6% | ? | ? | 14% | 16% | -1% | 12% |
| CS(=O)(=O)c1ccc(C(=O)N(CCc2ccccc2)Cc2ccccc2)cc1 | 6%[46.1 µM] | / | 23%[46.1 µM] | ? | -1% | / | -13% | 6% |
| CC(C)CCn1cnc2c(NCc3ccccc3)ncnc21 | ? | -1.3% | 3% | 0% | -10% | 4% | -9% | -9% |
| Cc1cc(C)c(S(=O)(=O)N(C)CC(=O)NCCCn2ccnc2)c(C)c1 | -1% | / | -16% | -15% | -1% | / | 6% | -14% |
| O=C(CN1CCC(n2nnc3cc(F)ccc32)CC1)NC1CC1 | 29% | 3.0% | 19% | 13% | -9% | 3% | 0% | 14% |
| C/C(=N\NC(=O)CN1CCN(S(=O)(=O)c2ccc(C)cc2)CC1)c1ccncc1 | / | / | / | -12% | 0% | / | 0% | -5% |
| COc1ccccc1N1CCN(C(=O)CN2C(=O)COc3ccc(S(=O)(=O)N4CCCC4)cc32)CC1 | 0%[46.1 µM] | 4.6% | -3%[46.1 µM] | -12% | / | ? | / | / |
| CS(=O)(=O)N1CCN(c2ncnc3c2cnn3-c2ccccc2)CC1 | 5%[46.1 µM] | / | 18% | 2% | 6% | / | -8% | 2% |
| COc1cc(/C=C2/NC(=O)NC2=O)cc(Br)c1OCc1cccc(C(=O)O)c1 | -7%[46.1 µM] | / | -17% | -9% | 0% | / | / | 17% |
| CCCN(C(=O)C1CC(=O)N(c2ccccc2C(C)CC)C1)C1CCS(=O)(=O)C1 (stereo unspecified) | -22% | / | 0% | -12% | 5% | / | / | -9% |
| Cc1cc(N2CCN(C3CCCCC3)CC2)n2nc(C)nc2n1 | 14% | 0.8% | 8% | -13% | 1% | 6% | ? | -11% |
| C#CCSc1nc2[nH]ncc2c(=O)[nH]1 | ? | 0.9% | 12% | -7% | ? | 9% | 5% | 24% |
| COc1cc(SC)ccc1C(=O)OCC(=O)NC1CC1 | 27%[46.1 µM] | / | / | 53%[activator] | 2% | / | 4% | -9% |
| C[C@H](NC(=O)c1nc[nH]c1C(=O)N[C@@H](CCCCNC(=O)OC(C)(C)C)C(=O)OC(C)(C)C)C(=O)OCc1ccccc1 | / | / | / | -23% | 11% | / | 10µM* | -2% |
| Cc1ccc(C)c(NS(=O)(=O)c2ccccc2C)c1 | -15% | / | 8% | 39%[activator] | -2% | / | -18% | 13% |
| Cc1cc(S(=O)(=O)n2cnc3ccccc32)c(C)cc1Cl | 0% | -1.6% | 10% | -8% | 14% | 3% | 1% | -16% |
| CCC1CCc2nc3sc(C(=O)Nc4ccc(C)cc4)c(N)c3cc2C1 (stereo unspecified) | 2%[46.1 µM] | -1.9% | 1%[46.1 µM] | 3% | / | 12% | / | / |
| CCC(C(=O)NC1CCCC1)N(C(=O)Cn1nnc(-c2ccc(C)cc2)n1)C1CCCC1 (stereo unspecified) | ? | / | ? | -9% | / | / | / | 6% |
| O=S(=O)(O)c1cc(OS(=O)(=O)c2ccccc2)cc2ccccc12 | / | / | / | -12% | 9% | / | ? | 14% |
| O=C(NC1CCCC1)C1CCN(C(=O)c2cccc(Cl)c2)CC1 | 17%[46.1 µM] | / | -8%[46.1 µM] | -9% | -1% | / | 3% | 4% |
| COC(=O)c1scc(C)c1S(=O)(=O)Nc1ccc(C)cc1 | ? | / | ? | 43%[activator] | -2% | / | -6% | 3% |
| C/C(=N/NC(=O)c1cccc(C)c1)c1c(O)cc(C)oc1=O | ? | -7.3% | 2% | 19% | -33% | -8% | -12% | -21% |
| Cc1nn(C)cc1CNC(=O)c1ccc(Br)o1 | 0%&0% | 3.3% | 4% | 14% | -2% | 4% | -7% | -6% |
| Cc1ccccc1[C@@H]1C(C#N)=C(N)S[C@H]1C(=O)c1ccccc1 | 1% | -12% | -2% | -12% | -9% | -8% | 19% | 10% |
| CC1CCCCC1n1c(=S)[nH]c2ccccc2c1=O (stereo unspecified) | ? | -4.6% | 10% | 10% | -16% | -4% | -87% | ? |
| COc1ccc(/C=C/C(=O)Nc2ccc(NC(C)=O)cc2)cc1S(=O)(=O)N1CCOCC1 | / | / | / | -7% | 0% | / | -34% | 5% |
| O=C(C1CCC(=O)N1Cc1cccs1)N1CCOCC1 (stereo unspecified) | 19%[46.1 µM] | / | 8%[46.1 µM] | 9% | 0% | / | 9% | -4% |
| COc1ccc(N=Cc2ccc(N(CCC#N)CCC#N)cc2)cc1 | 24% | / | -2% | -5% | / | / | / | 9% |

In the list so far, three contain a thiophene ring, fused or not:
| molecule | Marburg entry inh | Cruzain Triton | Lassa entry inh | 2A StopGo | SARS PLP yeast | Cruzain noTriton | NS1 inh | RE007 growth inh |
| --- | --- | --- | --- | --- | --- | --- | --- | --- |
| CCC1CCc2nc3sc(C(=O)Nc4ccc(C)cc4)c(N)c3cc2C1 (stereo unspecified) | 2%[46.1 µM] | -1.9% | 1%[46.1 µM] | 3% | / | 12% | / | / |
| COC(=O)c1scc(C)c1S(=O)(=O)Nc1ccc(C)cc1 | ? | / | ? | 43%[activator] | -2% | / | -6% | 3% |
| O=C(C1CCC(=O)N1Cc1cccs1)N1CCOCC1 (stereo unspecified) | 19%[46.1 µM] | / | 8%[46.1 µM] | 9% | 0% | / | 9% | -4% |

Going on with the list.
| molecule | Marburg entry inh | Cruzain Triton | Lassa entry inh | 2A StopGo | SARS PLP yeast | Cruzain noTriton | NS1 inh | RE007 growth inh |
| --- | --- | --- | --- | --- | --- | --- | --- | --- |
| CC(C)C(NC(=O)CN(c1cccc(F)c1)S(C)(=O)=O)C(C)C | -3% | 1.2% | ? | 2% | -1% | 8% | 5% | -3% |
| COc1ccc(S(=O)(=O)N2CCOC23CCN(S(=O)(=O)c2cc(C)ccc2C)CC3)cc1 | -10% | / | 2% | 7% | / | / | / | 11% |
| Cc1ccc2cccc(NC(=O)c3cccc4ccccc34)c2n1 | ? | -3.0% | -30%[46.1 µM] | 40%[activator] | / | ? | / | / |
| CN1CCN(c2ccc(CNS(=O)(=O)c3ccc(Cl)cc3)cc2)CC1 | 3%[46.1 µM] | / | 0% | 0% | 1% | / | -4% | -3% |
| Cc1ccc(OCC(=O)NCCCNC(=O)c2ccccn2)cc1C | 0%[46.1 µM] | / | -9%[46.1 µM] | 0% | -1% | / | -1% | 1% |
| COc1ccccc1C(CCNCc1ccccc1)c1ccc(OC(C)C)cc1 (stereo unspecified) | / | / | / | ? | -3% | / | -4% | 8% |
| NC(=S)N/N=C/c1cc([N+](=O)[O-])ccc1OCCOc1ccccc1 | -23%[46.1 µM] | 0.25µM* | -26% | -18% | 25% | 0.16µM* | 6% | 13% |
| CC1CCCC(C)N1/N=C/c1cccc(Br)c1 (stereo unspecified) | -2% | / | 15% | 18% | 0% | / | 7% | -1% |
| CN(c1ccccc1C(=O)NCc1ccccc1Cl)S(=O)(=O)c1ccccc1 | / | / | / | -4% | 3% | / | -34% | 18% |
| CCN(CC(=O)Nc1ccc(NC(C)=O)cc1)C(=O)/C=C/c1c(C)nn(-c2ccc(F)cc2)c1C | 20% | / | ? | -19% | ? | / | -5% | 2% |
| CCCS(=O)(=O)N1CCC(C(=O)NCc2cccnc2)CC1 | -5% | 6.0% | -2% | -19% | 0% | 0% | 1% | -12% |
| CCCNS(=O)(=O)c1cc(-c2nn3c(C)nnc3c3ccccc23)ccc1C | ? | 8.1% | ? | 119%[activator] | / | 2% | / | / |
| COc1nc(N)c(S(=O)(=O)c2ccc(C)cc2)cc1C#N | ? | -14% | -4% | -7% | -3% | 12% | -4% | -1% |
| Cc1nnc(SCC(=O)N(C(C)C)C(C)C)[nH]c1=O | 9% | / | 0% | -12% | 2% | / | -9% | -2% |
| Cc1sc(NC(=O)CSc2nnnn2C2CCCCC2)c(C#N)c1C | 12% | -8.5% | ? | -28% | 3% | -8% | -15% | 12% |
| COc1ccc(-n2ncc3c(=O)n(CC(=O)N4CCCc5ccccc54)cnc32)cc1 | -2% | -8.1% | ? | ? | -10% | -1% | -14% | -1% |
| Cc1ccc(-n2nc(C(=O)N3CCN(c4ccccc4F)CC3)c3c4ccccc4n(C)c3c2=O)cc1 | 7%[46.1 µM] | -0.9% | 12%[46.1 µM] | 0% | / | 6% | / | / |
| CCN(CC)CCNC(=O)/C(=C/c1cn(C)c2ccccc12)NC(=O)c1ccc(OC)c(OC)c1 | ? | / | ? | -7% | -2% | / | -2% | 4% |
| Clc1ccc(C2[C@H]3CN(CC4CCCCC4)[C@H](c4ccccc4)C34CC2(c2ccccc2)C4)cn1 (stereo partly specified) | / | 2.6% | / | 1% | -2% | -4% | -6% | 1% |
| CSc1ccc(CN2CCCN(C)CC2)cc1 | / | / | / | -10% | 0% | / | -4% | -4% |
| Cc1cccc(OCC(=O)Nc2cccc(OCc3cc(=O)n4cccc(C)c4n3)c2)c1 | / | -0.4% | 3%[46.1 µM] | -28% | / | -4% | / | / |
| Cc1cc(C)cc(N2C(=O)CS(=O)(=O)C23C(=O)N(Cc2ccccc2)c2ccccc23)c1 (stereo unspecified) | / | -4.7% | 3%[46.1 µM] | -13% | / | 6.3µM* | / | / |
| CCc1nn(CC(=O)Nc2cc(C)ccc2C)c(=N)s1 | -3%[46.1 µM] | / | 9% | 2% | -1% | / | / | 18% |
| CCn1c(CNC(=O)c2ccccc2F)cc2ccccc21 | -4% | / | -26% | 23% | 3% | / | 9% | 6% |
| O=C(CCl)N1CCN2C(=O)c3ccccc3C12c1ccc(Cl)cc1 (stereo unspecified) | ? | / | -5% | 10µM* | 0% | / | 3% | -19% |
